# Screening results deposited in PubChem by National Center for Advancing Translational Sciences (NCATS).
# D2 agonist = agonists of human D2 dopamine receptor (beta-arrestin). activation, % (concentration not given with the values). DiscoveRx PathHunter D2 beta-arrestin, luminescence, 90 min; 100% = 57 uM dopamine signal. 0.084% of 360,000 active. P14416; in the data active = activation above about 40%; inconclusive = about 15% to 40%; inactive = below about 15%; also: compound concentration not given in the record; the text of the record calls up to 30% inactive
# Target sequence (P14416 whole entry, looked up): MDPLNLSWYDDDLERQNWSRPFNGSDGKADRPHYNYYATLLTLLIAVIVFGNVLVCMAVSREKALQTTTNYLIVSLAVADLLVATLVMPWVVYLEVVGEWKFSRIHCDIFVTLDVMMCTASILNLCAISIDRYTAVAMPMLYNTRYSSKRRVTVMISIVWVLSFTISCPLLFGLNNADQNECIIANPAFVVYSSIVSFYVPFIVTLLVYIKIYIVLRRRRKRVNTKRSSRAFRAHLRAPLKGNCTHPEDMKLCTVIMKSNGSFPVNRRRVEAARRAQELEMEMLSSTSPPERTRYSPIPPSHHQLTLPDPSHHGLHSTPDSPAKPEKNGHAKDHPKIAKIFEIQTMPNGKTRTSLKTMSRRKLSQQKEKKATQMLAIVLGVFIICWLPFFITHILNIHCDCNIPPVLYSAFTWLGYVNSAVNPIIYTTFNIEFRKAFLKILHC
#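 DiscoveRx PathHunter D2 beta-arrestin cells (2,100/well) attached overnight, then compound-stimulated 90 min at 37 C in HBSS/10 mM HEPES/0.1% Tween-20 buffer; beta-galactosidase complementation read by luminescence after 1 h at ambient temperature. Dopamine 57 uM final (EC100) as control.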
# Menin-MLL FL inh = inhibitors of human menin-MLL interaction, wild-type MLL peptide | Fluorescence polarization, fluorescein-MLL peptide displacement from menin | FP activity change, % at 61.4 µM | 290,000 tested, under 10 active; inconclusive = falling polarisation curve, or a change in total fluorescence; inactive = total fluorescence flat and polarisation flat or rising; no compound was filed as active; the % refers to the polarisation; negative = inhibition;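 also: % of control where 0% means no effect; inhibitors lower the polarisation; unlabelled MLL peptide was the positive control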
# PINK1 modulator = changes PINK1 expression | 0.2% of 410,000 active | PINK1 immunofluorescence, high-content cytometry, 24 h | Potency, µM (series often up to 76.6 µM), without a hit: top-dose activation (PINK1 increase), usual class: activators; active = well fitted activation curve with a large enough effect; inconclusive = small, poorly fitted or top-dose-only effect; inactive = flat fitted curve, though single readings scatter; cell line not stated here;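 also: potency is read from the fitted curve at half-maximal effect; % of control where 0% means no effect; nearly all actives have a fitted effect of over 65% in size; a mitochondrial uncoupler was the plate control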
#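 Readout is PINK1 immunofluorescence, quantified alongside mitochondrial, cell and nuclear markers by laser-scanning microplate cytometry. Cells from a stable line were exposed to compound titrations (5 concentrations) for 24 hours, with CCCP controls.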
# ClpP mod = qHTS Assay for Activators of ClpP. AID 651965, 2013. ATP-dependent Clp protease proteolytic subunit (Bacillus subtilis (strain 168)), P80244. purified B. subtilis ClpP, FRET peptide cleavage, 20 min. Potency, µM (series often up to 57.5 µM), for inactives: at the top dose activity change, negative = active. 1.9% of 340,000 active; active = well fitted falling curve with a large enough effect; inconclusive = small, poorly fitted or top-dose-only effect; inactive = no such curve, though single readings can be large or run the other way; also: potency is read from the fitted curve at half-maximal effect; the source files actives as falling curves though it sought activators and does not explain the sign; nearly all actives have a fitted effect of over 65% in size; many hits overshoot -100%
# Target sequence (P80244 whole entry, looked up): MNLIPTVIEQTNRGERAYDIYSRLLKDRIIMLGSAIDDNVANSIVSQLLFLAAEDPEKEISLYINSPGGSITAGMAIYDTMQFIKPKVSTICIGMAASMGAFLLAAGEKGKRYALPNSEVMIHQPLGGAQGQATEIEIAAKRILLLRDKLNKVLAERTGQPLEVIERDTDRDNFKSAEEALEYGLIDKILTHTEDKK
#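 FRET quenching reversal measured ClpP activation: 10 microg/mL B. subtilis ClpP at pH 8 with the FRET-FV decapeptide, read at 430 nm after 320 nm excitation. The 20-min minus 0-min signal was scaled between DMSO/no-enzyme wells and ADEP (5.8 microM final).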
# gsp ag = gsp mutant agonism; Potency, µM (doses to about 76.9 µM), for the others: at the top dose activation (cAMP increase), actives largely listed as activators; gsp mutant cells, cAMP HTRF, 30 min; control for the full effect not named in the record; 0.13% of 340,000 active; active = well fitted activation curve with a large enough effect; inconclusive = small, poorly fitted or top-dose-only effect, or another doubt; inactive = no such curve, though single readings can be large or run the other way; cell line not stated here;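 also: phosphodiesterase inhibitor Ro 20-1724 added with compounds to block cAMP breakdown; potency is read from the fitted curve at half-maximal effect; nearly all actives have a fitted effect of over 60% in size; about a fifth of the inactives were tested at one dose only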
#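 Cells in DMEM/10% FBS with G418 were pretreated with compounds in DMSO plus […] (300 uM stock) for 30 min at 37C. cAMP was measured by HTRF (cAMP-d2 plus anti-cAMP antibody-K) after 30 min at room temperature.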
# gsp antag = antagonizes gsp, the McCune-Albright syndrome mutation; gsp-mutant cells, cAMP HTRF, 30 min; control for the full effect not named in the record; 0.4% of 340,000 active; Potency, µM (doses to about 76.9 µM), inactives show top-dose activity change, negative = inhibition, most hits filed as inhibitors; active = falling curve of any shape with a large fitted effect; inconclusive = falling curve, mostly with a smaller effect; inactive = flat or rising curve; cell line not stated here;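 also: intracellular cAMP measured with PDE inhibitor Ro 20-1724 present during compound exposure; potency is read from the fitted curve at half-maximal effect; % is scaled to controls: 0 for no effect and ±100 for the full control effect; nearly all actives have a fitted effect of over 65% in size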
#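 HTRF cAMP measurement after 30 min RT detection following 30 min, 37C compound treatment alongside […] (added as 300 uM solution) in G418-selected cells seeded at 2000/well and grown 16–24 h.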
# Sfp inh = Sfp phosphopantetheinyl transferase inhibition; Q9F4F7; Biochemical Sfp PPTase activity, qHTS; Potency, µM, without a hit: max response, negative = inhibition, hits mostly inhibitors; 3.5% of 310,000 active; active = well fitted inhibition curve with a large enough effect; inconclusive = small, poorly fitted or top-dose-only effect, or another doubt; inactive = no such curve, though single readings can be large or run the other way;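 also: the enzyme is Sfp with the accession as filed and its product quenches rhodamine fluorescence; potency is read from the fitted curve at half-maximal effect; 0% = enzyme reaction without inhibitor and -100% = no enzyme wells; top concentration of the series not given in the record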
#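 With Hepes-Na pH 7.6 buffer containing 10 mM MgCl2, Sfp (15 nM) modified BHQ-2-YbbR (12.5 uM) using rhodamine-CoA (5 uM). Two reads 30 minutes apart at 525/598 nm yielded each well's rate.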
# Numbers without * were called inactive; ? = inconclusive; · = not tested or not shown; [ ] = dose if it differs, or a comment.
SMILES,D2 agonist,Menin-MLL FL inh,PINK1 modulator,ClpP mod,gsp ag,gsp antag,Sfp inh
Cn1c(NCc2cc(Br)ccc2O)nc2ccccc21,-2.3,-0.3,3.2%,1.3%,-55%[inhibitor],-34%,-22%
CCOC(=O)c1cnc(-n2[nH]c(C)cc2=O)[nH]c1=O,3.5,-2.0,-0.5%,·,3%,-9%,12%
CCC(C)c1ccccc1N1CC(C(=O)N2CCN(C(=O)c3ccco3)CC2)CC1=O (stereo unspecified),-0.6,·,1.3%,-1.2%,5%,2%,·
Cc1cccc2nc(-c3cccc(NC(=O)Cc4ccccc4)c3)cn12,0.0,5.3,-2.4%,28µM*,-32%[inhibitor],-25%,19%
CCNc1ncc2nc(-c3ccccc3)c(=O)n(CCc3ccccc3)c2n1,·,13,10%,·,·,·,-12%
CCN(CC)C(=O)CSc1nc(N)c(C(=O)Nc2ccc(OC)cc2)s1,0.6,4.4,-0.1%,1.0%,18%,2%,1%
C=CC[C@@H](CC(=O)N[C@H](CO)Cc1ccccc1)C(=O)N[C@@H](C)COC(=O)[C@@H](CC=C)CC(=O)OC(C)(C)C,-2.1,·,0.3%,2.5%,?,0%,·
Cc1cc(C)c(C)c(OCCCn2ccnc2)c1,-0.9,4.2,2.8%,-6.2%,-34%,6%,-12%
COc1ccc(OC)c(CN2C(=O)c3ccccc3C2C(=O)NCC2CCCO2)c1 (stereo unspecified),-2.5,-0.6,1.3%,·,13%[15.4 µM],5%,18%
Cc1ccccc1C(=O)N1CCN(c2ccc(NC(=O)Cc3ccccc3)cc2)CC1,-1.7,·,0.1%,-1.2%,-2%,-5%,11%
Cc1cccc(N(C(=O)CS(=O)CC(=O)Nc2ccc3c(c2)OCO3)C(C)C(=O)NC2CCCC2)c1C (stereo unspecified),-6.2,1.0,-0.7%,0.8%,-2%,-1%,-14%
CN(CC(=O)Nc1cccc(F)c1)C(=O)CCNC(=O)c1ccc(Br)cc1,1.6,·,-0.2%,-0.6%,-10%,-15%,9%
OCCC#Cc1ccc(CN2CCN(C3CCCCC3)C(CCO)C2)cc1 (stereo unspecified),-4.3,-1.5,-0.2%,-0.6%,-52%[inhibitor],-8%,8%
Cc1nn(C)cc1C(C)NC(=O)c1cc(COc2ccc(F)c(F)c2)on1 (stereo unspecified),-1.7,-1.0,8.9%,0.2%,-5%,-7%,7%
COc1ccc(C2=CCN3CCCCC3C2)c(-c2ccc(OC)c(OC)c2)c1 (stereo unspecified),-2.1,·,3.0%,-3.9%,·,11%,·
CC(C)CCN1CCN(Cc2ccc(Sc3nncn3C)o2)CC1CCO (stereo unspecified),-2.1,3.6,-1.7%,2.2%,0%,5%,-6%
O=C(COc1ccc(F)cc1)NCCCn1ccnc1,-4.2,1.8,-0.7%,·,9%[15.4 µM],8%,3%
O=C(NCc1ccccc1Cl)c1ccc(S(=O)(=O)Nc2cccc(C(F)(F)F)c2)cc1,1.2,3.7,-0.4%,20µM*,?,-5%,41%[activator]
Cc1csc(NC(=O)Cc2nn(C)c(=O)c3ccccc23)n1,0.2,-2.7,1.3%,-1.5%,6%,-8%,9%
COc1c(Cl)cnn(-c2cccc(C)c2)c1=O,-5.5,-0.9,1.6%,0.9%,27%,-8%,8%
COc1cccc(Nc2ncc3ncc(=O)n(CCc4ccccc4)c3n2)c1,·,12,5.6%,·,·,·,-6%
NS(=O)(=O)c1ccc(O)c(NC(=O)c2ccc([N+](=O)[O-])o2)c1,?,4.8,1.4%,·,-6%[15.4 µM],-8%,11µM*
O=C1CCC(C(=O)N2CCCC2)CN1Cc1cccc(C(F)(F)F)c1 (stereo unspecified),-1.1,-4.3,1.6%,-1.5%,-19%,-8%,7%
Cc1ccc(-c2nc3c(c(SCC(=O)N4CCOCC4)n2)COC(C)(C)C3)cc1,-2.8,·,0.9%,0.7%,-19%,6%,·

# Overlap with the part before: 4 compounds, then new ones.
SMILES,D2 agonist,Menin-MLL FL inh,PINK1 modulator,ClpP mod,gsp ag,gsp antag,Sfp inh
COc1cccc(Nc2ncc3ncc(=O)n(CCc4ccccc4)c3n2)c1,·,12,5.6%,·,·,·,-6%
NS(=O)(=O)c1ccc(O)c(NC(=O)c2ccc([N+](=O)[O-])o2)c1,?,4.8,1.4%,·,-6%[15.4 µM],-8%,11µM*
O=C1CCC(C(=O)N2CCCC2)CN1Cc1cccc(C(F)(F)F)c1 (stereo unspecified),-1.1,-4.3,1.6%,-1.5%,-19%,-8%,7%
Cc1ccc(-c2nc3c(c(SCC(=O)N4CCOCC4)n2)COC(C)(C)C3)cc1,-2.8,·,0.9%,0.7%,-19%,6%,·
CCOC(=O)COn1c(=O)c[n+]([O-])c2ccccc21,-2.5,?,-1.7%,-3.5%,6%,5%,?
COc1ccc(C(=O)NC2CCCc3ccccc32)cc1S(=O)(=O)N1CCOCC1 (stereo unspecified),-3.1,-3.4,1.1%,·,-10%[15.4 µM],-2%,25%
COc1cc(C(=O)Nc2ccc(N3CCN(C(=O)c4ccc(C)cc4)CC3)cc2)cc(OC)c1OC,2.8,·,0.9%,-0.9%,-22%,-24%,4%
COCCN(C(=O)c1csnn1)C(C(=O)NC1CCCCC1)c1sccc1C (stereo unspecified),-1.9,-4.2,-0.2%,0.9%,?,18%,-1%
CC1=Nc2ccccc2/C1=C\c1nc(-c2ccccc2)oc1O,-6.2,?,4.8%,0.4%,21%,-7%,-4%
COc1ccccc1N1CCN(C(=S)NC(=O)/C=C/c2ccccc2)CC1,-7.6,4.3,7.5%,-0.6%,4%[15.4 µM],-5%,20%
CCOC(=O)C1CCCN(C(=O)CCNS(=O)(=O)c2ccc3c(c2)CCC(=O)N3)C1 (stereo unspecified),-3.8,4.6,-0.2%,1.0%,?,11%,7%
CN(c1ccccc1)S(=O)(=O)c1cccc(NC(=O)c2ccncc2)c1,-0.5,1.2,-0.5%,-1.9%,24%,-29%,12%
CCOC(=O)[C@@H]1[C@H]2COc3ccc(Br)cc3[C@@H]2N2C(=O)N(c3ccc(Cl)cc3)C(=O)[C@]12C,-7.9,·,-1.3%,-0.1%,13%,-17%,·
COc1ccc(N2C(=O)/C(=C\c3ccco3)N=C2SCC(N)=O)cc1Cl,5.7,?,0.2%,·,-19%,-5%,-11%
CCOc1ccc(NC(=O)CN2C(=O)COc3ccccc32)cc1,-2.5,4.5,0.8%,1.1%,-28%,4%,16%
O=S(=O)(Cc1ccccc1)N1CCN(Cc2ccc3c(c2)OCO3)CC1,-1.7,-0.5,-2.0%,-0.1%,1%,5%,15%
COc1ccc(C(c2nnnn2Cc2ccccc2)N2CCN(C(=O)c3ccco3)CC2)cc1OC (stereo unspecified),-0.7,-0.6,-1.3%,0.5%,-16%,-3%,7%
COC(=O)c1nc(NC(=O)c2ccccc2Br)n[nH]1,-4.9,-1.8,2.6%,-1.7%,17%,-6%,6%
Clc1ccc(-c2csc(N3CCOCC3)n2)cc1,-3.3,4.3,1.4%,·,-17%,-6%,-15%
CCNc1nc(Cl)nc(NCc2ccccc2)n1,-3.7,-0.7,0.6%,-5.0%,18%,10%,32%[activator]
COc1ccc(-c2nc3cnc(N4CCNCC4)nc3n(C)c2=O)cc1,·,-27,2.3%,·,·,·,-5%
COc1cccc(OC)c1CNC(=O)CCSCc1ccccc1F,2.9,-1.9,-0.4%,2.2%,3%[15.4 µM],-13%,3%
C/C(=N\Nc1ccc(C(=O)O)cc1)c1ccc(-n2ccnc2)cc1,-5.0,0.8,-1.1%,·,-18%[15.4 µM],-20%,8%
CSc1ncccc1C(=O)OCC(=O)NC(N)=O,0.7,0.4,10%[38.3 µM],0.5%,-11%,11%,0%
COc1ccc(CCNc2nc3ccccc3n3cnnc23)cc1OC,-1.2,0.1,5.5%,-5.3%,1%,26%,-12%
NC(=O)CSc1nc(N)c2c3c(sc2n1)CCCCC3,-2.3,5.2,-0.5%,-0.8%,15%,1%,-4%
C[C@H](CO)N1C[C@H](C)[C@@H](CN(C)S(=O)(=O)c2ccccc2)Oc2ccc(NC(=O)c3ccncc3)cc2C1=O,-2.3,·,1.4%,-1.0%,·,9%,·
COc1ccc(C(C)=O)cc1CC1(C)C(=O)Nc2ccc(OC(F)(F)F)cc21 (stereo unspecified),-6.2,·,3.2%,-2.2%,·,·,·
COc1cccc(CNC(=O)c2cc(C)nc3ccccc23)c1,-2.3,3.1,1.6%,·,-15%[15.4 µM],3%,15%
O=c1c2ccc(Cl)cc2[nH]c(=S)n1CCC1=CCCCC1,1.4,1.0,6.2%,-4.6%,-5%[15.4 µM],6%,-6%
CC(=O)Nc1cncc(-c2cccc(C(=O)N(C)C)c2)n1,-3.0,·,-0.8%,4.4%,·,·,·
CN=C(C)/C(C(=O)OC)=C(/O)c1ccccc1F,-4.3,1.3,2.8%,-2.0%,-3%[15.4 µM],3%,14%
O=C(CNc1cc(S(=O)(=O)N2CCOCC2)ccc1N1CCOCC1)Nc1cccc(C(F)(F)F)c1,-0.9,·,8.9%,·,-5%,-2%,·
CSc1ccc(/C=C(\C#N)C(=O)NC2CCCCC2)cc1,0.4,3.0,15%,100%,6%,5%,16%
Cc1c(C(=O)N2CC(C)OC(C)C2)[nH]c2ccc(Br)cc12 (stereo unspecified),4.7,3.6,-0.6%,·,?,1%,13%
COc1ccccc1NC(=S)N1CCN(c2ccccn2)CC1,0.8,1.9,1.2%,-26%,11%,4%,-10%
CCN1CCN(C(=O)c2nn(-c3ccc(C)cc3)c(=O)c3c2c2ccccc2n3C)CC1,-2.9,1.9,4.4%,-5.8%,?,0%,16%
Cc1nc2cc(NCc3ccc(Cl)cc3)ccc2n1C,5.2,-1.3,7.2%,·,-61%[inhibitor],-3%,-7%
COc1ccc(C(=O)Oc2cc(/C=N/NC(N)=S)ccc2OC)cc1,-3.7,0.5,-2.0%,-0.8%,-27%,-3%,11%
